# Screening results deposited in PubChem BioAssay by National Center for Advancing Translational Sciences (NCATS).
# HPGD inh: qHTS Assay for Inhibitors of HPGD (15-Hydroxyprostaglandin Dehydrogenase) | purified HPGD, NADH fluorescence kinetic, PGE2 substrate | Potency, µM, inactives show top-dose activity change, negative = inhibition, most hits filed as inhibitors | actives 4.3% (n = 150,000) | AID 894, 2007; active = well fitted inhibition curve with a large enough effect (not every such curve was filed as active); inconclusive = small, poorly fitted or top-dose-only effect, or another doubt; inactive = no such curve, though single readings can be large or run the other way;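 further: top concentration of the series not given in the record; plate controls included wells without enzyme; inactives centre near -10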
# Target sequence (P15428 whole entry, looked up): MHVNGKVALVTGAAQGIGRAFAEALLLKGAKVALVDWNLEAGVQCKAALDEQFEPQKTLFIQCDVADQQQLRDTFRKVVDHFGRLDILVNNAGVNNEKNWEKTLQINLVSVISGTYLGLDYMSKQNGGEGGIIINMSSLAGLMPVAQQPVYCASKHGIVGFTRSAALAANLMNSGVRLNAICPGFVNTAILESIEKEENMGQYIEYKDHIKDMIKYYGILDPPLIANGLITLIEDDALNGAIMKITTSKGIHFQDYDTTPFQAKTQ
#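 NADH formation kinetics: reaction with 30 uM PGE2 and 1 mM NAD+ (final), 20 nM enzyme, Tris-HCl pH 8 with Tween 20, after 15 min compound preincubation at room temperature. Fluorescence change, last versus first of five reads.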
# An asterisk follows results filed as active; ? = inconclusive; & = joins results of further samples. On the % scale 0 is the no-effect control and ±100 the full control effect; potency means the concentration at half of the fitted maximal effect.
# Preview (4 entries):
SMILES,HPGD inh
CCN(CC)S(=O)(=O)c1ccc(N2CCN(CCO)CC2)nc1,-8.8%
C/C(=C\CO)CCC(C)CCCC(C)CCCC(C)C (stereo not given),-8.7%
CN[C@@H]1[C@H](O[C@H]2[C@H](O[C@H]3[C@H](O)[C@@H](O)[C@H](N=C(N)N)[C@@H](O)[C@@H]3N=C(N)N)O[C@@H](C)[C@]2(O)C=O)O[C@@H](CO)[C@H](O)[C@H]1O,-5.0%
COc1cc2c(cc1NC(=O)Cn1cnc3c1c(=O)n(C)c(=O)n3C)oc1ccccc12,-7.2%

# The listing, from the start:
SMILES,HPGD inh
CCN(CC)S(=O)(=O)c1ccc(N2CCN(CCO)CC2)nc1,-8.8%
C/C(=C\CO)CCC(C)CCCC(C)CCCC(C)C (stereo not given),-8.7%
CN[C@@H]1[C@H](O[C@H]2[C@H](O[C@H]3[C@H](O)[C@@H](O)[C@H](N=C(N)N)[C@@H](O)[C@@H]3N=C(N)N)O[C@@H](C)[C@]2(O)C=O)O[C@@H](CO)[C@H](O)[C@H]1O,-5.0%
COc1cc2c(cc1NC(=O)Cn1cnc3c1c(=O)n(C)c(=O)n3C)oc1ccccc12,-7.2%
CCOc1ccc(NC(=O)C2CCCCN2S(=O)(=O)c2ccccc2)cc1 (stereo not given),-7.9%
O=C(NCCN1CCOCC1)c1ccc(CS(=O)(=O)c2ccc(Cl)cc2)o1,-3.8%
CC(C)(C)C1(C)OC(=O)C(=Cc2ccc(OCC(=O)Nc3ccccc3)cc2)C(=O)O1 (stereo not given),?
Nc1nc2ccc([N+](=O)[O-])cc2s1,-14.4%
Cc1nn(CCCC(=O)NCc2ccc(Cl)cc2)c(C)c1[N+](=O)[O-],-6.4%
Cc1ccc(CNC(=O)CSc2nc3ccsc3c(=O)n2NC(=O)c2ccccc2)cc1,-3.1%
COc1cc(NC(=O)c2cccs2)c(C(=O)OCC(=O)NCc2ccco2)cc1OC,?
COc1cccc(C(=O)Nc2nc3c(s2)CN(C)CC3)c1,?
Fc1ccccc1-c1nc(-c2ccccc2)no1,-20.4%
Cc1cc2c(ncn2C)c(NS(=O)(=O)c2cc(Cl)ccc2Cl)c1C,1.4%
CC(=O)Cc1nsc(Nc2ccc3c(c2)OCCO3)n1,20µM*
CCS(=O)(=O)N1CCC(C(=O)NCc2ccccc2OC)CC1,-10.8%
Nc1nc(-c2cccnc2)nn1C(=O)Cc1ccccc1,-20.5%
CC(C)(C)c1cc(C(=O)/C=C/c2ccc(C(=O)O)cc2)cc(C(C)(C)C)c1,-18.8%
O=C1OCCC1Sc1nnc(-c2ccccc2Br)n1Cc1ccccc1 (stereo not given),1.3%
Cc1ccc2nc(-c3ccncc3)c(Nc3ccccc3)n2c1,?
CN1CCN(c2cc3c(c4c2[nH]c2ccccc24)C(=O)CC(C)(C)C3)CC1,?
Cc1cccc(C)c1C(=NCCCN(C)C)c1ccccc1,-2.2%
CCSc1nc2ccc(OC)cc2cc1C#N,-19.3%
NC(=O)Nn1c(CCC(=O)O)ccc1-c1ccc(F)cc1,-21.7%
Cc1ccc(CSCCNS(=O)(=O)c2ccccc2)cc1,-1.0%
CC(C)(C)OC(=O)NCCc1nnc(SCc2ccc(Cl)cc2)o1,-8.6%
CS(=O)(=O)N1CCN(c2ccc([N+](=O)[O-])c(NCc3ccccc3)c2)CC1,-22.9%
Cc1ccc(NC(=O)CN(C)S(=O)(=O)c2cccc3nsnc23)cc1Cl,-20.4%
Cc1cc(C)n2nc3nc4c(cc3c2n1)CCCC4,?
CCCCNc1ccc(C(=O)Nc2cccc(C)n2)cc1[N+](=O)[O-],-13.2%
c1ccc(-n2ncc3c(N4CCN(CCOc5cccc6ccccc56)CC4)ncnc32)cc1,?
c1ccc(-c2cc(N3CCCCC3)ncn2)cc1,-11.3%
NCCC[C@@H](CC(=O)N[C@@H]1CCCC[C@H]1C(=O)N[C@H](CC(=O)N[C@@H](CCC(=O)O)CC(=O)O)Cc1ccccc1)NC(=O)C[C@H](Cc1ccccc1)NC(=O)[C@@H]1CCCC[C@H]1N,-2.2%
COCCN1C(=O)c2oc3c(C)cc(C)cc3c(=O)c2C1c1cccc(O)c1 (stereo not given),-27.9%
Clc1ccc(-c2nc(NCCN3CCOCC3)c3ccccc3n2)cc1,-6.4%
CC1CCN(C(=O)CSc2nnc(Cc3cccn3C)n2-c2ccc(F)cc2)CC1,-5.8%
COC(=O)CN1C(=O)C2(C(C#N)=C(N)Oc3ccccc32)C2=C1CC(C)(C)CC2=O (stereo not given),-1.1%
CCN(CCNC(=O)C1CCN(Cc2nc(-c3cccc(Cl)c3)oc2C)CC1)c1ccccc1,-20.6%
COc1ccc(C(CC(=O)O)NC(=O)c2sc3ccccc3c2Cl)cc1 (stereo not given),?
COc1ccc(-c2noc(-c3ccccc3C(=O)NCc3ccco3)n2)cc1OC,-24.9%

# Among those listed so far, 2 have a cyano group.
SMILES,HPGD inh
CCSc1nc2ccc(OC)cc2cc1C#N,-19.3%
COC(=O)CN1C(=O)C2(C(C#N)=C(N)Oc3ccccc32)C2=C1CC(C)(C)CC2=O (stereo not given),-1.1%

# Carrying on:
SMILES,HPGD inh
CC(C)C(=O)Nc1ccc(Sc2ccc(F)cc2)cc1,-21.6%
COC(=O)c1ccc(N(C(=O)CNC(=O)c2ccco2)C(C(=O)NC2CCCC2)c2ccco2)cc1 (stereo not given),-1.2%
COc1cccc(N2CCN(C(=O)c3[nH]c(C)c(C(C)=O)c3C)CC2)c1,-5.1%
COc1cccc(C(=O)Oc2ccc3c(C)cc(=O)oc3c2C(C)=O)c1,-11.6%
CN1CCc2ccccc2Cc2[nH]c3ccccc3c2CC1,-3.3%&-12.8%
COc1ccc(/C=C/C(=O)Nc2ccc(-n3nncc3-c3ccc(OC)c(OC)c3)cc2)cc1OC,?
CCONC(=O)Nc1ccccc1,-29.2%
COC(=O)c1ccccc1NC1CC(=O)N(c2c(C)cccc2C)C1=O (stereo not given),?
CCn1ncc(C2=NOC(C(=O)Nc3cccnc3)C2)c1C (stereo not given),-18.8%
COc1ccc(CCCc2nnc(SCC(=O)Nc3cc(C)ccc3C)o2)cc1,-6.8%
Cc1cc[n+](C2=C([O-])c3ccccc3C(=O)/C2=N\S(=O)(=O)c2cccs2)cc1C,-14.1%
Cc1ccc(NC(=O)c2cc3nc(C)cc(C)n3n2)cc1,-24.8%
COc1ccc(/C=C/C(=O)c2c(O)cc(C)oc2=O)c(OC)c1,-5.4%
CCN(C(=O)CN1CCN(c2ccccc2OC)CC1)c1c(N)n(Cc2ccccc2)c(=O)[nH]c1=O,-16.4%
COc1cc(C2C(C(=O)c3ccc(C)o3)=C(O)C(=O)N2CCc2ccccc2)ccc1O (stereo not given),-23.2%
O=C(c1ccccc1)C1C(=O)c2ccccc2C1=O,-6.3%
CCSc1nnc(NC(=O)[C@@H](NC(=O)c2ccccc2)C(C)C)s1,-6.8%
CC(OC(=O)c1cc(S(=O)(=O)N(C)c2ccccc2)ccc1Cl)C(=O)Nc1ccc2c(c1)OCCO2 (stereo not given),-6.3%
COc1ccc2nc(NC(=O)C3CCCN(S(=O)(=O)c4cccc5nsnc45)C3)sc2c1 (stereo not given),-11.6%
O=C(COC(=O)c1cccs1)NC1CCCCC1,-26.0%
Cc1ccc(-n2c(C)cc3c2CC(C)(C)CC3=O)cc1C,-4.3%
COc1ccc(CCN=CC2=C(O)CCCC2=O)cc1OC,-9.4%
CCc1cc2c(SCC(=O)c3ccc(Cl)s3)ncnc2s1,-26.0%
Cc1ccc(CNC(=O)/C=C/c2ccc(S(=O)(=O)N3CCOCC3)cc2)cc1,-7.2%
Cc1c(NC(=O)/C(C#N)=C/C2CC=CCC2)c(=O)n(-c2ccccc2)n1C (stereo not given),-8.3%
O=C(OC(c1ccc(NS(=O)(=O)c2ccccc2)cc1)(C(F)(F)F)C(F)(F)F)c1ccccc1,-12.0%
COc1ccc(-c2n[nH]c3c2C(c2ccc(OC)c(OC)c2)N(c2ccccc2)C3=O)cc1 (stereo not given),-11.6%
O=C(c1ccccc1)N1CC(COc2ccccc2)OC(c2ccco2)O1 (stereo not given),-8.6%
NS(=O)(=O)c1ccc(NC(=S)NC2CCCC2)cc1,14.1µM*
CCOC(=O)c1cnn(-c2ccccc2)c1-c1ccccc1,-13.5%
Cc1cccc(C(=O)N[C@H](C(=O)OCC(=O)NC(=O)c2cccn2C)C(C)C)c1,-7.4%
COc1ccc(NC(=O)CN2C(=O)C(C)SC(C)C2=O)cc1 (stereo not given),-2.1%
CC(NC(=O)C(Cc1ccccc1)N1C(=O)C2C3CCC(C3)C2C1=O)c1ccccc1 (stereo not given),0.0%
Cc1cccc(NC(=O)CSc2nsc(SCC(=O)Nc3cccc(C)c3)c2C#N)c1,-17.4%
Cc1ccc(NC(=O)Cc2ccc(-n3cccc3)cc2)c(C)c1,-3.1%
COc1ccc(Oc2ccc(/C=C/C(=O)c3ccc(O)cc3)cc2[N+](=O)[O-])cc1,-22.7%
CCOc1ccccc1C(=O)OCC(=O)Nc1ncc(C(F)(F)F)cc1Cl,-13.6%
Cc1ccc(/C=C/C(=O)Nc2ccc([N+](=O)[O-])c(NC(=O)/C=C/c3ccc(C)o3)c2)o1,?
Cc1noc(C)c1COC(=O)c1ccc2c(c1)S(=O)(=O)c1ccccc1C2=O,28.2µM*
C=CCc1c(C)nc(N)[nH]c1=O,-12.2%

# Copied from the list.
# Reading for c1ccc(-c2cc(N3CCCCC3)ncn2)cc1 in HPGD inh: -11.3%
# Reading for Cc1ccc(NC(=O)c2cc3nc(C)cc(C)n3n2)cc1 in HPGD inh: -24.8%

# (listing goes on)
SMILES,HPGD inh
CCCCCCCC/C=C\CCCCCCCC(=O)NCc1ccc(O)c(OC)c1,?
CC1CC(C)CN(CC(C)(C)NS(=O)(=O)c2ccc(Cl)cc2)C1 (stereo not given),-11.3%
CC1CCN(C(=O)C2CCCN(S(C)(=O)=O)C2)CC1 (stereo not given),-10.6%
CCOC(=O)C(CCSC)NC(=O)CN (stereo not given),-0.1%
CCN1CCCCC(=N/O)/C(=N/O)CCCC1,-2.7%
O=C(Cn1cnc2ccccc21)N/N=C/c1ccccc1[N+](=O)[O-],-18.0%
C/C(CCc1ccco1)=N/NC(=O)CCC(=O)Nc1ccc(Br)cc1,-5.6%
COc1cc(/C=C2\CCc3ccccc3C2=O)cc(OC)c1OC,-7.8%
Cc1cc(C)cc(Oc2cc(NC(=O)c3cn(C)nc3C)cc([N+](=O)[O-])c2)c1,-0.9%
COc1ccc(C2N(c3cccc(Cl)c3)C(=O)C3CCCN32)cc1 (stereo not given),-11.7%
CCCn1c(=N)c(C(=O)NC2CCCC2)cc2c(=O)n3cccc(C)c3nc21,?
CCCCSc1nc2sc3c(c2c(=O)[nH]1)CCC3,?
Cn1c(C(=O)OC(C(=O)NCc2ccco2)c2ccncc2)cc2sccc21 (stereo not given),-5.9%
Cc1cc(C(=O)Nc2sc3c(c2C#N)CCCCC3)cs1,?
O=C(N/C=C/c1ccc(Cl)cc1)NCc1ccc(Cl)cc1,5.2%
Cc1ccc(C)c(NS(=O)(=O)c2ccc(OCC(=O)N3CCOCC3)cc2)c1,-10.7%
C=CCc1c(C)nc(-c2ccccc2)nc1N/N=C/c1ccccc1,-7.6%
Cc1nn(C2CCS(=O)(=O)C2)c(Cl)c1/C=C/C(=O)OCC(=O)Nc1ccccc1OC(F)F (stereo not given),-10.9%
O=C(NCCN1CCCC1)c1ccc(-n2c(=O)c(=O)[nH]c3ccccc32)cc1,-3.5%
CCOC(=O)c1cc2cc(OC)ccc2[nH]1,?
CCOC(=O)C1=NN(C(C)=O)C2(CC(=O)N(c3cccc(C)c3)C2=O)C1 (stereo not given),0.2%
C=CCOC(=O)C1=C(C)NC(SCC(=O)Nc2nccs2)=C(C#N)C1c1ccc(Cl)cc1 (stereo not given),-28.1%
Cc1ccc(-c2n[nH]c(=S)n2/N=C/C=C\c2ccccc2[N+](=O)[O-])cc1,0.891µM*
COc1cccc(Cn2nnc(C(=O)NCc3ccc(F)cc3)c2N)c1,-3.6%
COc1ccc(C2CC(c3ccc(Cl)cc3Cl)n3nc(N)nc3N2)cc1 (stereo not given),-19.4%
CCOC(=O)C1=C(c2ccccc2)O/C(=C(/C(=O)OC)C(F)(F)F)S1,?
CCCC(=O)Nc1ccc2c(c1)nc1n2CCSC1,?
Cc1ccc(-n2nnnc2C(Cl)(Cl)c2nnnn2-c2ccc(C)cc2)cc1,3.55µM*
O=[N+]([O-])c1nn(-c2cccc(Cl)c2)n(O)c1=NCc1cccnc1,-17.9%
Cc1cc(-c2csc(N)n2)c(C)n1CCc1ccccc1,-3.5%
CCn1c(-c2cc(-c3ccccc3OC)nc3ccccc23)n[nH]c1=S,?
Cc1ccc(C(=O)NCc2ccco2)cc1S(=O)(=O)Nc1cccc(C)c1C,-8.5%
CC(C)CN(CC(C)C)C(=O)CC(=O)NC(=O)c1ccc(Cl)cc1,-9.7%
O=C(NCCCN=C1NS(=O)(=O)c2ccccc21)c1ccc(S(=O)(=O)N2CCOCC2)cc1,-4.5%
CC(C)c1nc2ccc(C(=O)O)cc2[nH]1,-9.0%
CC(C)NC(=O)C1CCN(C(=O)c2ccc(-c3ccccc3)cc2)CC1,-5.5%
Cc1sc(NC(=O)c2ccco2)c(CN2CCC(C)CC2)c1C,-22.7%
CCCOC(=O)c1ccc(NC(=O)Oc2ccccc2)cc1,?
CCCc1nc2ccccc2c2nc(N)nn12,-22.4%
COc1cc(Nc2cc(C)nc3nc(C)nn23)cc(OC)c1OC,-45.2%
CC(C(=O)O)n1c(C(F)(F)F)nc2ccccc21 (stereo not given),-11.8%
Cc1ccc(S(=O)(=O)N2CCN(C(=O)c3c(C)nn(-c4ccccc4)c3Cl)CC2)cc1,-11.2%
C=CCn1c(Cc2ccc(OCC)cc2)nnc1SCC(N)=O,-7.9%
CCOc1nnc(C)c2c(C)n(-c3cccc(Cl)c3)nc12,-9.9%
CC(=O)Nc1ccc(C(=O)N/N=C/c2cccnc2)cc1,-9.7%
CC(C)n1nnnc1SCC(=O)Nc1ccccc1N1CCOCC1,-11.6%

# These rows are one share of the data; count on the stated rates, not on these rows.
